Screening data (PubChem)
D2 PAM – positive allosteric modulators of human D2 dopamine receptor. P14416. DiscoveRx D2 beta-arrestin cells, luminescence, 90 min; 100% = 57 uM dopamine signal. potentiation, % (concentration not given with the values). 360,000 tested, 0.23% active; active = potentiation of 50% or more; inconclusive = 30% to 50%; inactive = 30% or less;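 also: compound concentration not given in the record; tested on top of an EC20 dose of dopamine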
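PathHunter D2 cells, attached overnight at 37 deg C, received compound in DMSO plus dopamine at EC20 (50 nM final) for 90 min at 37 deg C. Beta-arrestin recruitment was read as luminescence after 1 h with detection reagent at ambient temperature.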
TRPV1 potentiator – human TRPV1 potentiation; 320,000 tested, 0.02% active; potentiation, % at 8.33 µM; Q8NER1; TRPV1-expressing cells, Fluo-8 calcium influx, capsaicin EC20 potentiation; host cell line not named in the record; control for the full effect not named in the record; active means potentiation above 80%; inconclusive means 30% to 80%; inactive means below 30%; also: 0% is about no effect
Target sequence (Q8NER1 whole entry, looked up): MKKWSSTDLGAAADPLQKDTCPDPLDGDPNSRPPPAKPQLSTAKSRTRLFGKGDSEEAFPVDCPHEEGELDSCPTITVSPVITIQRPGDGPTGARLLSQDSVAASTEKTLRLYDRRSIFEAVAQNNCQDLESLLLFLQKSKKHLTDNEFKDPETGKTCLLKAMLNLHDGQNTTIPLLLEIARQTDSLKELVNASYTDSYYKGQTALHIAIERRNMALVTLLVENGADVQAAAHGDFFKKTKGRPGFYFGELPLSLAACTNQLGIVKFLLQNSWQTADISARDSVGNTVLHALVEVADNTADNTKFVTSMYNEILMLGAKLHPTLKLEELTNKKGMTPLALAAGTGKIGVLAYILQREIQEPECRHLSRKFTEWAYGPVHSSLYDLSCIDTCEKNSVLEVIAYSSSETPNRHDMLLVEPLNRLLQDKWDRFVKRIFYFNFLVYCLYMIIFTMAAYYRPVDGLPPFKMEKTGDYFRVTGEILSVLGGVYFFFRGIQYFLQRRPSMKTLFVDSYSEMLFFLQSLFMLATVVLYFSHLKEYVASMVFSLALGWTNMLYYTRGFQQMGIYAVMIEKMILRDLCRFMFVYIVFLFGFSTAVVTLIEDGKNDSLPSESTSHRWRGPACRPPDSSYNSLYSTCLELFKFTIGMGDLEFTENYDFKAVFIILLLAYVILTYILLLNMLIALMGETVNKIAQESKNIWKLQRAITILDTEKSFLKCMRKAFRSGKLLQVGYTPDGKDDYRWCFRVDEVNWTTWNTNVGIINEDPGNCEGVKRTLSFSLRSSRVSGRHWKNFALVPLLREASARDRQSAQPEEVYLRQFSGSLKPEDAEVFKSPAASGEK
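Fluo-8 calcium influx in TRPV1-expressing cells, kinetic read (ex 480/em 520 nm). Compound added and read 3 min for agonist activity, followed by capsaicin at EC20 final and 2 min further read for enhancement.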
CtBP-E1A blk – blocks the CtBP interaction with E1A; AID 651724; activity change, % (concentration not given with the values); 340,000 tested, 0.49% active; AlphaScreen GST-E1A/His-CtBP binding, 1536-well; stronger effect = lower value; control for the full effect not named in the record; in the data active means activity change below about -65%; inconclusive means about -30% to -65%; inactive means above about -30%; also: % is scaled to controls: 0 for no effect and ±100 for the full control effect
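In 5 uL wells, 23 nL compound meets equimolar GST-E1A and His-CtBP (5X stock 125 nM each) for 2 h, 37 °C. Beads (5X, 50 ug/mL) then 1 h, 37 °C, dark.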
Six1-Eya2 blk – inhibitors of human Six1/Eya2 interaction; activity change, % (no concentration beside the values); 360,000 tested, 0.56% active; Q15475+O00167; AlphaScreen GST-Six1/His-Eya2 binding, biochemical; stronger effect = lower value; control for the full effect not named in the record; in the data active = activity change below about -65%; inconclusive = about -30% to -65%; inactive = above about -30%; also: % is scaled to controls: 0 for no effect and ±100 for the full control effect; compound concentration not given in the record
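Compounds are tested against tagged Six1 and Eya2 proteins bridged by glutathione donor and nickel acceptor beads; after a one-hour incubation at 37 °C without light, AlphaScreen emission is recorded.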
PINK1 modulator – modulators of PINK1 expression; PINK1 immunofluorescence, high-content cytometry, 24 h; Potency, µM (series often up to 76.6 µM), inactives show top-dose activation (PINK1 increase), usual class: activators; 410,000 tested, 0.2% active; AID 624263; active = well fitted activation curve with a large enough effect; inconclusive = small, poorly fitted or top-dose-only effect; inactive = flat fitted curve, though single readings scatter; cell line not stated here;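 also: potency is read from the fitted curve at half-maximal effect; % of control where 0% means no effect; nearly all actives have a fitted effect of over 65% in size; a mitochondrial uncoupler was the plate control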
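PINK1 protein level read as immunofluorescence by microplate cytometer in a fixed, stained stable cell line after 24 h exposure to five compound concentrations, with CCCP as control.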
Sfp inh – blocks B. subtilis Sfp PPTase activity; Q9F4F7; Biochemical Sfp PPTase activity, qHTS; Potency, µM, for inactives: max response, negative = inhibition, actives largely listed as inhibitors; 310,000 tested, 3.5% active; AID 1490; active = well fitted inhibition curve with a large enough effect; inconclusive = small, poorly fitted or top-dose-only effect, or another doubt; inactive = no such curve, though single readings can be large or run the other way;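 also: the enzyme is Sfp with the accession as filed and its product quenches rhodamine fluorescence; potency is read from the fitted curve at half-maximal effect; 0% = enzyme reaction without inhibitor and -100% = no enzyme wells; top concentration of the series not given in the record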
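Fluorescence-quenching assay with 15 nM Sfp, 5 uM rhodamine-CoA and 12.5 uM BHQ-2-labelled ybbR peptide in pH 7.6 Hepes/MgCl2 buffer. Enzyme was pre-incubated with compound for 15 min at room temperature. Rate was taken from the 30-min fluorescence change (525/598 nm).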
D2 ag – human D2 receptor agonism in beta-arrestin assay; P14416; 360,000 tested, 0.084% active; activation, % (test concentration not listed); DiscoveRx PathHunter D2 beta-arrestin, luminescence, 90 min; 100% = 57 uM dopamine signal; in the data active = activation above about 40%; inconclusive = about 15% to 40%; inactive = below about 15%; also: compound concentration not given in the record; the text of the record calls up to 30% inactive
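DiscoveRx PathHunter D2 beta-arrestin cells (2,100/well) attached overnight, then compound-stimulated 90 min at 37 C in HBSS/10 mM HEPES/0.1% Tween-20 buffer; beta-galactosidase complementation read by luminescence after 1 h at ambient temperature. Dopamine 57 uM final (EC100) as control.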
Active calls of the source: *; ? = inconclusive; nt = no result given; & = joins results of further samples; [ ] = dose if it differs, or a comment.

Structure,D2 PAM,TRPV1 potentiator,Sfp inh,PINK1 modulator,Six1-Eya2 blk,CtBP-E1A blk,D2 ag
CCOC(=O)C1=NNC2(c3ccc(Cl)cc3)C(=O)N(c3cc(C)cc(C)c3)C(=O)C12 (stereo not given),-17,1,13%,1.7%,-10,-3,-5.6
CCCS(=O)(=O)NC(=O)C1(C)CCCN(C(=O)/C=C/c2ccccc2)C1 (stereo not given),-4,nt,nt,-0.6%,3,7,-3.2
COc1cc(NC(=O)c2ccc(S(=O)(=O)N(C)C)cc2)cc(OC)c1OC,2,-10,8%,nt,0,6,-0.2
COc1ccc(-c2oc3ccccc3c2C#CC(C)(C)O)cc1,-17,-8,nt,1.6%,-3,nt,-1.4
Cc1c(C)n(C)c2ccc(C(=O)NCCCN(C)C3CCCCC3)cc12,-38,2,-14%,-0.9%,-22,-14,-5.8
C=CCNC(=O)c1cc2c(=O)c3ccccc3oc2nc1C,-2,10,6%,2.3%,14,4,1.9
O=C(NC1CCCN(c2ccc(C(F)(F)F)cn2)C1)c1cc(Cl)ccc1F (stereo not given),-27,23,-5%,5.4%,0,19,-6.0
CCc1ccc([C@@H]2CC=C(C(=O)O)[C@H](c3ccc(Cl)cc3)N2S(=O)(=O)c2ccc(C)cc2)cc1,-3,8,nt,0.0%,8,9,2.1
CC(=O)Nc1ccc2[nH]c3ccccc3c2c1,-5,6,2%,nt,2,3,-1.9
CC[C@@]12C(=O)N(c3ccc(C)cc3)C(=O)N1[C@H](c1ccc(Br)cc1)[C@@H]1C(=O)N(C(C)(C)C)C(=O)[C@@H]12,8,-4,15%,1.0%,8,0,1.7
CC1CC(C)CN(C(=O)COC(=O)c2ccc3c(c2)OCCO3)C1 (stereo not given),13,nt,nt,-1.7%,4,7,4.2
Cc1cc(=O)oc2c3c(cc(OCC(=O)N4CCC(C(=O)O)CC4)c12)OC(C)(C)CC3,-7,-3,15%,1.8%,?,?,-0.9

Further structures
Structure,D2 PAM,TRPV1 potentiator,Sfp inh,PINK1 modulator,Six1-Eya2 blk,CtBP-E1A blk,D2 ag
O=C(NCCO)/C(=C\c1cccs1)NC(=O)c1cccs1,-19,3,3%,-1.3%,5,13,-3.0
COc1ccc(S(=O)(=O)N2CCC(C(=O)NCCN3CCOCC3)CC2)cc1C,-10,-5,-5%,2.1%,36,23,-3.6
CN(C)C(CNC(=O)Cc1cccc(C(F)(F)F)c1)c1ccccc1 (stereo not given),-9,-29,10%,0.6%,8,0,-4.0
CCCCCCN1C[C@@H](O)[C@H](n2cc(C3CC3)nn2)C[C@@H]1c1ccc(OC)cc1,1,nt,nt,0.6%,0,1,-9.7
CC1(C)Cc2c(sc3c2C2=NCCN2C=N3)CO1,10,8,-11%,-0.4%,1,4,-2.8
CCCCCCCCCCOC(=O)c1csc2nnsc12,6,-1,16%,1.3%,2,13,-1.0
CC(C)OCCCNC(=O)CCSc1ccc(Cl)cc1,-15,-4,6%,9.6%[38.3 µM],6,1,-2.6
CCOC(=O)C1CCN(Cc2oc(CO)cc(=O)c2O)CC1,3,7,14%,1.7%,0,0,-4.3
O=C(Nc1cc(Br)ccc1O)C1CC(c2c(F)cccc2Cl)=NO1 (stereo not given),3,1,2%,2.0%,-10,0,1.0
COC(c1ccccc1)c1nnc(CCC(=O)N2CCCCCCC2)o1 (stereo not given),3,5,-5%,2.1%,10,15,1.4
Cc1ccccc1Nc1nc(N)nc(CSCc2c(C)noc2C)n1,16,-15,2%,-1.3%,1,-2,1.7
CCOC(=O)NN1C(=O)c2ccccc2NC1c1ccccc1F (stereo not given),-7,-3,21%,-1.5%,0,-20,-18

Carrying on.
Structure,D2 PAM,TRPV1 potentiator,Sfp inh,PINK1 modulator,Six1-Eya2 blk,CtBP-E1A blk,D2 ag
O=C(Cc1ccc(NC2=NC3CS(=O)(=O)CC3S2)cc1)N1CCN(c2ccc(F)cc2)CC1 (stereo not given),-4,5,-4%,-0.1%,1,6,-5.0
COc1ccc(S(=O)(=O)N(C)CC(=O)Nc2ccccc2C(F)(F)F)cc1OC,-4,1,13%,-1.7%,-8,0,-3.7
Cc1cc(C(=O)OCC(=O)Nc2ccc(S(=O)(=O)N3CCOCC3)cc2)c(C)o1,-3,-17,-5%,2.2%,-9,-4,-0.2
O=C(NNC(=O)c1cccs1)c1csc(N2CCOCC2)n1,-22,-10,nt,-0.8%,0,3,-4.4
Cc1[nH][nH]c(=O)c1C(c1ccccc1[N+](=O)[O-])C(C#N)C#N (stereo not given),-6,-7,-66%,2.9%,-6,2,-0.3
CN(c1ccccc1)S(=O)(=O)c1nnc(NC(=O)C2CCCCC2)s1,-7,-10&10,25%,-0.4%&-0.4%,4,-8,11
COc1cccc(/C=C2\SC(=S)N(CCC(=O)Nc3ccc(O)cc3)C2=O)c1,-5,13,3%,0.2%,0,-17,6.5
COc1cccc(C(C(=O)NCC2CCCO2)N(C(=O)Cn2nnc3ccccc32)c2ccc(NC(C)=O)cc2)c1OC (stereo not given),2,-9,-4%,1.7%,5,12,-4.6
O=C(/C=C/c1ccc(Cl)cc1)N(Cc1cccs1)C1CCS(=O)(=O)C1 (stereo not given),-7,-8,0%,0.3%,-4,-10,-3.0
O=C(CN1CCN(S(=O)(=O)c2ccccc2)CC1)Nc1ccc(Cl)cn1,2,-10,19%,0.1%,2,1,-3.7
CN(CC1COc2ccccc2O1)C(=O)c1cccc(S(=O)(=O)N2CCCC2)c1 (stereo not given),-15,5,nt,0.0%,4,-20,0.5
C#CCn1cc(/C=N/Nc2nc3ccccc3[nH]2)c2ccccc21,-7,-9,11µM*,1.2%,-22,-21,2.6

Some of these compounds in order of their number in Six1-Eya2 blk, ascending.
SMILES	D2 PAM	Sfp inh	PINK1 modulator	Six1-Eya2 blk	CtBP-E1A blk	D2 ag
Cc1cc(C(=O)OCC(=O)Nc2ccc(S(=O)(=O)N3CCOCC3)cc2)c(C)o1	-3	-5%	2.2%	-9	-4	-0.2
CN(c1ccccc1)S(=O)(=O)c1nnc(NC(=O)C2CCCCC2)s1	-7	25%	-0.4%&-0.4%	4	-8	11
COc1cccc(C(C(=O)NCC2CCCO2)N(C(=O)Cn2nnc3ccccc32)c2ccc(NC(C)=O)cc2)c1OC (stereo not given)	2	-4%	1.7%	5	12	-4.6

Later entries.
Structure,D2 PAM,TRPV1 potentiator,Sfp inh,PINK1 modulator,Six1-Eya2 blk,CtBP-E1A blk,D2 ag
S=C(c1ccccc1)N1CCN(C(=S)c2ccccc2)CC1,10,2,1%,5.2%,3,2,3.2
CCN(CC)CCOC(=O)c1ccc(NC(=O)/C=C/c2cccs2)cc1,-18,-29,-4%,0.2%,-6,nt,-2.0
O=c1cc(CSc2ccccc2)nc(-c2ccccc2)[nH]1,-4,23,-11%,0.0%,7,2,-9.6
CCOC(=O)c1cc(C(=O)c2cc(Br)ccc2O)coc1=N,10,20,2%,-1.6%,-7,-21,1.8
Cc1c(Cl)cccc1NC(=O)Cn1cnc(S(=O)(=O)N2CCCC2)c1,-12,-11,4%,0.8%&0.6%,-8,-14,1.3
CC(C)CCNC(=O)NC(=O)COC(=O)CNC(=O)C1CCCCC1,1,22,-1%,2.9%,0,nt,0.0
O=C(CCCN1C(=O)/C(=C/c2ccccc2OC(F)F)SC1=S)Nc1cccnc1,-13,nt,nt,-1.8%,-24,-1,-0.7
CCc1ccccc1NC(=O)C1C2C=CC(O2)C1C(=O)O (stereo not given),-3,8,-27%,-0.9%,5,7,4.3
COC(=O)CCC(=O)N1CCCC(CNS(=O)(=O)c2ccc(OC)cc2)C1 (stereo not given),-2,2,-1%,-0.1%,0,-6,1.8
CCCN1CCC(=O)N(CCOc2ccccc2)CC1,-11,22,0%,-0.9%,1,5,-0.3
COc1ccc2cc(C3(C)NC(=O)NC3=O)ccc2c1 (stereo not given),-16,1,19%,-0.4%,7,-4,-0.3
CCCN(Cc1ccccc1)C(=S)Nc1ccc(C(C)=O)cc1,-3,9,-8%,0.7%,-1,5,-1.4

The list goes on.
Structure,D2 PAM,TRPV1 potentiator,Sfp inh,PINK1 modulator,Six1-Eya2 blk,CtBP-E1A blk,D2 ag
C=CCNCC(=O)NN=C(c1ccccc1)c1ccccc1,20,16,10%,-1.9%,-3,-1,-2.8
CCOC(=O)[C@]12CCCC=C1N(Cc1ccc(Cl)cc1Cl)C(=O)[C@H](CC(=O)NCc1cccs1)C2,nt,nt,nt,3.6%,-1,-17,nt
CCOC(=O)c1c(NC(=O)Cn2nc(C(F)F)cc2C(F)F)sc(C)c1C,-3,5,15%,0.9%,1,8,-0.3
CN(C)c1ccc(N=Cc2nc(-c3ccccc3)oc2OC(=O)c2cccc(Br)c2)cc1,-5,-24,-3%,14%,-22,-18,-3.6
Cc1ccnc(NC(=O)c2ccc3c(c2)NC(=O)C(C)S3)c1 (stereo not given),3,-14,nt,1.8%,-1,0,2.0
CCOc1ccc(NC(=O)COc2ccc3c(c2)CCC3)cc1OC,-2,1,nt,-0.9%,?,-3,2.4
Cc1ccc(C)c(N2CCN(C(=O)c3ccc(NC4=NC5CS(=O)(=O)CC5S4)cc3)CC2)c1 (stereo not given),-3,6,3%,-0.2%,0,-3,-5.3
CN(C)c1cc[n+](CC(=O)Nc2ccc(Cl)cc2)cc1,-25,-4,-5%,0.9%,0,-12,0.1
CN(CC(=O)Nc1cccc(F)c1)C(=O)c1ccccc1OCCOc1ccccc1,5,-8,nt,0.0%,-3,-6,0.2
O=C(c1cccs1)N1CCN(c2ncc(Br)cn2)CC1,1,-19,-8%,0.8%,2,nt,-0.7
Cc1ccc(-n2c(C)nc3c(cnn3-c3ccc(F)cc3)c2=O)cc1C,2,-6,15%,-0.8%,4,8,-3.6
COc1ccc(N2C(=O)C3C(C2=O)C2C=CC3C23CC3)c(OC)c1 (stereo not given),-16,17,5%,-0.8%,-1,6,-2.6

Further records follow.
Structure,D2 PAM,TRPV1 potentiator,Sfp inh,PINK1 modulator,Six1-Eya2 blk,CtBP-E1A blk,D2 ag
Cc1c(C(=O)NCCSCc2c(Cl)cccc2Cl)cccc1[N+](=O)[O-],-12,2,-16%,-2.0%,0,0,0.1
CN(C)C(CNC(=S)Nc1cccc(Cl)c1)c1ccccc1 (stereo not given),-18,-3,12%,1.4%,-9,-3,-6.4
CCOc1ccc(CNS(=O)(=O)c2c(C(=O)N3CCCC3)c(C)n(C)c2C)cc1OC,2,3,12%,-0.7%,13,-2,2.7
CCOc1ccc(C2=NNC(c3cccnc3)=Nc3ccc(OC)cc32)cc1,-4,-13,-13%,1.5%,-17,-3,2.9
CCOC(=O)C(C)Oc1cccc2c(=O)n(CC(=O)NCc3ccco3)ccc12 (stereo not given),1,?,-6%,9.5%,-1,3,-1.8
O=C(NNc1c2ccccc2nc2ccccc12)c1cccc(O)c1,-25,3,-2%,-1.3%,-65*,-77*,-4.9
